WNV NS2B-NS3 inh: inhibitors of WNV NS2B-NS3 protease, primary screen, biochemical, fluorogenic substrate. Genome polyprotein (West Nile virus), P06935. fluorogenic substrate Ex360/Em465; hits give low values. z-score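 (tested at a level between 10 and 100 µM)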. actives 0.18% (n = 65,000). AID 577, 2007;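 active = z-score at -3 or under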;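 note: score is relative to mean and spread of the compound wells of a plate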
Target sequence (P06935 1371-1501 limits assumed): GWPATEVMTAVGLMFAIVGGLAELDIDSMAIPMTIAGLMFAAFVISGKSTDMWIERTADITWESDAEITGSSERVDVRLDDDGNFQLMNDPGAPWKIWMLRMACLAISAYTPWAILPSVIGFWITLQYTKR
Target sequence (P06935 1502-1679 limits assumed): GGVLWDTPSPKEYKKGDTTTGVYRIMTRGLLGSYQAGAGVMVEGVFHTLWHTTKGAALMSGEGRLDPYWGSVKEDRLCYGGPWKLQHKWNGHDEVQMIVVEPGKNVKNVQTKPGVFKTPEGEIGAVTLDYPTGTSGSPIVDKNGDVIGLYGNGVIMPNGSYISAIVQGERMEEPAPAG
MT1-MMP reporter: inhibitors of MT1-MMP promoter transcription, cell-based, luciferase reporter, luminescence (AID 618); actives 0.62% (n = 87,000); MT1-MMP promoter luciferase reporter cells, luminescence; calls from a first round at 10 µM; hits with a dose series show EC50 in µM;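 active = over half of the reporter light lost at 10 µM or EC50 under 50 µM; inactive = the rest and hits that failed the dose series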;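 note: actives suppress MT1-MMP promoter-driven transcription so potencies describe inhibitors; HT1080 fibrosarcoma cells; overnight exposure; toxic or luciferase-blocking compounds were not removed from the actives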
Hsc70: Hsc70 inhibitors, probe displacement, primary screen, biochemical, fluorescence polarization (AID 568). Heat shock cognate 71 kDa protein (Homo sapiens). Hsc70 fluorescence polarization, probe displacement; higher % means a stronger effect; strong numbers were not always called active. displacement, % at 20 µM, or IC50 in µM where a hit was titrated. 83,000 tested, under 10 active;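 active = displacement above 50% without optical interference and an IC50 on retest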;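 note: ATPase domain with a fluorescein-tagged ATP probe; 0% = vehicle and 100% = excess ADP; read after one hour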
Numbers without * were called inactive; i = inactive; / = not tested or not shown. Rows are unselected; any-hit rate near 0.77%.

smiles,WNV NS2B-NS3 inh,MT1-MMP reporter,Hsc70
Cc1ccc(-c2nn(-c3ccccc3)cc2/C=C(\C#N)c2cccc(C#N)c2)o1,0.13,i,7.8%
O=C(NCc1ccco1)Nc1cccs1,0.98,i,7.9%
O=C(CSc1nc2c(cnn2-c2ccc(F)cc2)c(=O)[nH]1)N1CCCCC1,-0.72,i,-0.3%
COc1ccc(C2=NOC3(CC(=O)N(c4ccc(Cl)cc4)C3=O)C2)c(OC)c1 (stereo unspecified),/,i,3.6%
CCCNc1nc(N2CCOCC2)nc(N2CCOCC2)n1,0.03,i,-2.1%
CCOc1ccc(C)cc1S(=O)(=O)NC1CCCCC1,-0.13,i,-4.2%
CN(CCCC(=O)Nc1ccncc1)S(=O)(=O)c1ccc(Cl)cc1,-0.57,i,0.9%
CCCCc1c(O)nc(SCC(=O)NCC2CCCO2)[nH]c1=O (stereo unspecified),2,i,-2.9%

2 compounds from above, limited to Hsc70 and MT1-MMP reporter:
compound | Hsc70 | MT1-MMP reporter
CCOc1ccc(C)cc1S(=O)(=O)NC1CCCCC1 | -4.2% | i
CCCNc1nc(N2CCOCC2)nc(N2CCOCC2)n1 | -2.1% | i

Remaining list, next part:
smiles,WNV NS2B-NS3 inh,MT1-MMP reporter,Hsc70
CC(=O)c1c(C)[nH]c(C(=O)COC(=O)CNS(=O)(=O)c2ccccc2)c1C,-0.11,i,-0.4%
COc1cccc(NC(=O)N2CCN(c3ccc(C(F)(F)F)cn3)CC2)c1,0.39,i,-3.6%
C=CCn1c(SCC(=O)NCCCC)nc2scc(-c3ccco3)c2c1=O,0.18,i,-8.7%
CC(=O)c1c(C)[nH]c(C(=O)OCn2nnc3ccccc3c2=O)c1C,0.26,i,1.1%
Cc1cc(C(=O)Nc2c(C)nn(Cc3c(Cl)cccc3Cl)c2C)no1,2.3,i,-1.9%
COc1cc(C(=O)Nc2ccc3c(c2)OCCO3)ccc1-n1cnnn1,-0.61,i,-9.9%
O=C(C1CCN(S(=O)(=O)c2cccc3cccnc23)CC1)N1CCN(c2ccccn2)CC1,-1.4,i,-3.7%
CCOC(=O)COc1cccc2c(=O)n(CC(=O)NCc3ccc4c(c3)OCO4)ccc12,0.5,i,-1.0%
O=C(Nc1nnc(C2CC2)s1)C1Cc2ccccc2CN1S(=O)(=O)c1ccccc1F (stereo unspecified),/,i,-7.3%
CC1(C)CC(=O)c2cc(OCC(=O)O)ccc2O1,0.83,i,-5.7%
O=C(CSc1nc2ccccc2o1)Nc1ccccc1N1CCCCCC1,0.91,i,-3.6%
S=c1[nH]nc(COc2ccc3c(c2)OCO3)n1-c1ccccc1,0.35,i,0.8%
CCN1CCN(c2ncnc3c2oc2nc(C(C)C)c4c(c23)CCC4)CC1,-0.15,i,6.0%
Cc1ccc(C(=O)NC2CCCCC2)cc1,/,i,-3.1%
CCOC(=O)c1c(C)[nH]c(C(=O)Nc2ccc3c(c2)OCO3)c1C,-0.62,i,1.0%
COCC(=O)Nc1nc2n(n1)C(c1ccccc1Cl)CC(c1ccc(OC)cc1)N2 (stereo unspecified),-0.0027,i,2.4%
N#Cc1cn(Cc2ccccc2)c2ccccc12,0.68,i,0.9%
Cc1ccc2c(CC(=O)NCC3COc4ccccc4O3)coc2c1 (stereo unspecified),1.7,i,-4.8%
COc1ccc(NC(=O)C(C)Oc2ccc(/C(C)=N\O)cc2)cc1 (stereo unspecified),0.06,i,-0.4%
COCCN(CCOC)C(=O)CCn1c(=O)oc2ccccc21,-0.77,i,0.0%
COc1ccc(C(=O)Nc2nnc(-c3ccccc3)o2)cc1OC,-0.06,i,3.7%
CN(C)c1ccc(C2N3CC4(C)CN2CC(C)(C3)C4O)cc1 (stereo unspecified),-0.41,i,0.1%
C=CCn1c2ccccc2c2nnc(SCC(=O)OCN3C(=O)c4ccccc4C3=O)nc21,/,i,1.7%
CCOCCCn1c(=S)[nH]c2cc(C(=O)N3CCN(C)CC3)ccc2c1=O,-1.6,i,1.2%

Some values from the results shown:
In WNV NS2B-NS3 inh, COCCN(CCOC)C(=O)CCn1c(=O)oc2ccccc21 has the entry -0.77
In Hsc70, CCOCCCn1c(=S)[nH]c2cc(C(=O)N3CCN(C)CC3)ccc2c1=O has the entry 1.2%
In Hsc70, CN(C)c1ccc(C2N3CC4(C)CN2CC(C)(C3)C4O)cc1 (stereo unspecified) has the entry 0.1%

(listing goes on)
smiles,WNV NS2B-NS3 inh,MT1-MMP reporter,Hsc70
CCn1c(CSc2nc(C)cs2)nc2cc(S(=O)(=O)N(C)C)ccc21,-0.85,i,4.1%
COc1ccc(C2NC(c3ccc(OC)c(OC)c3OC)C(C)C(=O)C2C)c(OC)c1OC (stereo unspecified),-0.54,i,1.8%
CCOc1ccccc1N1CCN(S(=O)(=O)c2ccc3c4c(cccc24)C(=O)N3)CC1,0.18,i,4.0%
Cc1ccc(N2CCN(c3ccc(C)cc3)C2c2cccnc2)cc1,/,i,-1.2%
C=CCn1cnc2c(c1=O)c1nc3ccccc3nc1n2-c1ccc(C)cc1,0.68,i,6.3%
COc1ccc(OC)c(S(=O)(=O)N2CCCc3ccccc32)c1,-1.6,i,2.2%
N#Cc1nc(Cc2cccc3ccccc23)oc1N1CCC(C(N)=O)CC1,0.85,i,2.5%
CC(Sc1nnc(-c2ccc(Cl)cc2)n1C)C(N)=O (stereo unspecified),1.2,i,-4.8%
COc1ccc(OCC(O)Cn2ccnc2C)cc1 (stereo unspecified),/,i,-1.6%
CSc1nnc(-c2ccc(S(=O)(=O)N3CCCC3)cc2)n1C,-1.8,i,4.7%
O=C(NCc1cn2ccsc2n1)c1c(F)cccc1Cl,1.2,i,-1.3%
CCN(CC)CCP(=O)(c1ccccc1)c1ccccc1,/,i,-2.4%
S=C1NCCOCCOCCOCCNC(=S)NCCOCCOCCOCCN1,/,i,3.7%
COc1ccc(C2CC(c3ccc(Br)cc3)Nc3nc(N)nn32)cc1 (stereo unspecified),0.83,i,0.3%
COC(=O)c1ccc(CSc2nnnn2Cc2ccccc2)cc1,-0.23,i,-4.1%
O=C1CC(c2ccccc2)Cc2nc(N3CCc4ccccc4C3)ncc21 (stereo unspecified),/,i,-0.5%
CCc1cc2cc(C(=O)Nc3ccc(F)cc3)sc2s1,/,i,-1.8%
CC(C)CC(=O)Nc1cccc(-c2cn3ccsc3n2)c1,-1.1,i,-1.1%
Cc1ccc(Cn2c(=O)c3ccccc3n3c(SCC(=O)N4CCCCC4C)nnc23)cc1 (stereo unspecified),-0.63,i,1.5%
COc1cc2c(cc1NC(=O)C1CCCO1)oc1ccccc12 (stereo unspecified),-0.43,i,-2.9%
Cc1ccc(S(=O)(=O)NC(=O)COc2ccccc2C(N)=O)cc1,-0.98,i,-2.1%
Cc1ccc(NC(=O)C2CCCN(S(=O)(=O)c3c(C)noc3C)C2)nc1 (stereo unspecified),-0.26,i,0.0%
Cc1cccc(C)c1N(CC(=O)Nc1cccc(N(C)S(C)(=O)=O)c1)S(C)(=O)=O,0.32,i,8.4%
O=C(O)c1ccc(-n2c(-c3ccccc3)n[nH]c2=S)cc1,-0.16,i,0.9%
COc1ccc(C2(C(=O)NCCCN(C)C)CCOCC2)cc1,0.62,i,-1.0%
CCCC(c1nnnn1C1CCCC1)N1CCN(c2ccccc2F)CC1 (stereo unspecified),1.5,i,1.4%
COc1ccc(C2=Nn3c(nnc3-c3ccccn3)SC2)cc1,0.3,i,-1.6%
CCSc1cc(C2C(C(=O)OC)=C(C)NC3=C2C(=O)CCC3)c(C)o1 (stereo unspecified),-0.0056,i,-1.0%
COc1cc(S(=O)(=O)N2CCN(c3ccccc3)CC2)ccc1Cl,1,i,1.3%
CCCOc1ccc2ccccc2c1/C=N/n1cnnc1,-1.3,i,4.5%
Cc1ccccc1NC(=O)c1c(O)c2cccc3c2n(c1=O)CCC3,0.61,i,3.2%
Cc1cc(NC(=O)Cn2c(=O)n(Cc3ccccc3)c(=O)c3ccccc32)no1,1.3,i,-3.3%
COCc1cc(=O)n2[nH]c(-c3ccsc3-n3c(C)ccc3C)cc2n1,/,i,-1.1%
COc1ccc(Br)cc1CNC(=O)CCc1nc(-c2ccccc2F)no1,2,i,0.0%
O=C(CCCCCN1C(=O)CCC1=O)Nc1ccc2c(c1)OCCO2,-0.02,i,2.4%
COc1ccc(-c2nnc3sc(-c4cccs4)nn23)cc1OC,-0.13,i,-3.1%
COC(=O)c1ccccc1NS(=O)(=O)c1ccc(F)cc1,0.89,i,4.0%
CCc1ccc(C(=O)CSc2ncn[nH]2)cc1,-1.2,i,-1.6%
O=C(Nc1cccc(NC(=O)N2CCN(c3ccccc3)CC2)c1)N1CCN(c2ccccc2)CC1,-1.1,i,-8.5%
CC(C)N1C(=O)CCC1C(=O)NCc1ccccc1Cl (stereo unspecified),-0.95,i,2.9%
CCOC(=O)N1CCC(C(=O)Nc2ccc(OCC)cc2)CC1,-0.06,i,-0.9%
O=C(c1cn(-c2ccccc2)nc1-c1cccs1)N1CCN(c2ccccn2)CC1,-0.3,i,-0.1%
Cc1cc2c(c(N3CCOCC3)n1)C(=O)OC2,1,i,1.3%
O=C1c2ccccc2COc2ccc(O)cc21,/,i,6.9%
Cc1ccc(-c2nc(-c3cccnc3)no2)cc1,-0.13,i,2.0%
CCOC(=O)c1cc(NC(=O)c2cccnc2)cc(C(=O)OCC)c1,0.32,i,2.0%
CCn1c(C)nc2cc(S(=O)(=O)N3CCCC3)ccc21,-0.39,i,-1.5%
COc1ccc(C(=O)NCC(C)CN(C)C)cc1 (stereo unspecified),-0.29,i,-1.6%
O=C(c1ccc(F)cc1)C1CCN(C(=O)NCc2ccccc2)CC1,-0.3,i,7.7%
CC(C)C(=O)Nc1nnc(SCC(=O)NCc2cccs2)s1,-1.1,i,-0.9%
COc1cccc(S(=O)(=O)N2CCOCC2)c1,/,i,-0.9%
CCCc1nc(N)c(C#N)c(-c2cccnc2)c1CC,-0.18,i,3.2%
O=C(Nc1ccc(S(=O)(=O)N2CCCCC2)cc1)c1ccncc1,0.11,i,0.8%
C/C=C/CSc1nc2c(c(=O)[nH]c(=O)n2C)n1C(C)C,0.51,i,-3.8%
COc1cc(NC(=O)CSc2ncnc3c2cnn3Cc2ccccc2)cc(OC)c1,/,i,1.8%
Cn1c(=O)c(NC(=O)c2ccccc2)c2n(c1=S)CCCCC2,0.14,i,-1.6%

(next part)
smiles,WNV NS2B-NS3 inh,MT1-MMP reporter,Hsc70
CCOc1ccc2nc(SCC(=O)c3cccs3)sc2c1,-0.79,i,-8.9%
Nc1cc(S(=O)(=O)C(F)(F)F)ccc1C(=O)O,-0.11,i,2.6%
CCc1nnc2sc(-c3ccc(NC(=O)CSc4ccc(Cl)cc4)cc3)nn12,-1.5,i,-9.5%
CC1CCCC(C)N1CCCNC(=O)Cn1cc2c(n1)CCCC2 (stereo unspecified),1.5,i,-1.2%
COc1ccc2[nH]cc(C(=O)N3CCCCC3)c(=O)c2c1,-1.3,i,-14%
CSc1n[nH]c(NCc2ccccc2)n1,-0.44,i,-1.1%
COc1ccc(NC(=O)CN(C)S(=O)(=O)c2ccc3c(c2)OCCO3)c2ncccc12,0.46,i,0.1%
Cc1nc2ccccn2c1C(=O)NCCCN1CCOCC1,-0.67,i,1.1%
O=C1CC(SC(=NCc2ccc3c(c2)OCO3)Nc2ccccc2)C(=O)N1c1ccccc1 (stereo unspecified),/,i,3.2%
Cn1c(=O)n(CC(=O)NCc2cccnc2)c2ccccc21,-0.07,i,-3.7%
COc1ccc(C(=O)NC(=O)N2CCCCC2)cc1,-1.1,i,0.4%
Cc1cc(C)c2cc(CN(CCO)Cc3nnnn3Cc3ccc(F)cc3)c(=O)[nH]c2c1,2,i,-9.2%
O=C(O)c1cccc(NS(=O)(=O)c2ccc3nnn(O)c3c2)c1,-0.73,i,31%
Cn1c(=O)c2c(nc(SCC(=O)NCc3ccco3)n2C)n(C)c1=O,-0.38,i,-0.1%
CC(C)(C)c1ccc(-c2nc(C#N)c(NCc3ccncc3)o2)cc1,-0.46,i,-2.6%
Cc1ccccc1NC(=O)c1ccccc1O,1.3,i,2.0%
CCCCc1ccc(NC(=O)N[C@H](C(=O)O)C(C)C)cc1,-0.52,i,0.2%
CSc1nnc2n(Cc3ccccc3)c(=O)c3c4c(sc3n12)COC(C(C)C)C4 (stereo unspecified),/,i,1.7%
Cc1ccc(N2C(=S)N=C(Nc3ccccc3C)C23CCOC(C)(C)C3)cc1 (stereo unspecified),/,i,4.4%
CC1(C)CC(=O)C2=C(C1)OC(=O)C2(NC(=O)c1cccs1)C(F)(F)F (stereo unspecified),-0.31,i,-2.3%
Cc1ccc2cccc(S(=O)(=O)Nc3ccc4c(c3)OCO4)c2n1,-0.48,i,-3.4%
CN(CC(=O)Nc1ccc(C#N)cc1)Cc1ccc(Cl)cc1,-1.4,i,3.2%
CCc1ccccc1NC(=O)c1nnn(CC(=O)Nc2cccc(C)c2C)c1N,-0.13,i,-4.2%
Cc1cc(NC(=O)COC(=O)c2cccc(S(=O)(=O)N3CCOCC3)c2)no1,-1.4,i,-2.3%
